Compound activity: PubChem BioAssay, National Center for Advancing Translational Sciences (NCATS)
MCF10A rereplic = inducers of DNA re-replication in MCF 10A breast cells. MCF 10A DNA re-replication, Hoechst nuclear intensity, 48 h. Potency, µM (highest dose often 46.1 µM), for the others: at the top dose activity, positive = re-replication, hits mostly activators. actives 2.9% (n = 350,000). AID 624296; further: % of control where 0% means no effect; nearly all actives have a fitted effect of over 50% in size
S2 tox = viability counter-screen for ATXN expression inhibitors; S2 cells (HEK-293 line with an ATXN2-luciferase reporter) viability, CellTiter-Fluor protease fluorescence, 24 h; Potency, µM (titrated, usually from 56.7 µM), usual class: cytotoxic; actives 0.49% (n = 400,000); AID 651635; further: nearly all actives have a fitted effect of over 40% in size
EPAC2 antag = EPAC2 (human) antagonism | Q8WZA2 | EPAC2 GEF exchange of Rap1B-BODIPY-GDP, fluorescence | Potency, µM (series often up to 114 µM), without a hit: at the highest dose activity, negative = inhibition, usual class: inhibitors | actives 0.18% (n = 360,000) | AID 720708; further: on the % scale 0 is the no-effect control and ±100 the full control effect; nearly all actives have a fitted effect of over 45% in size; many of its hits are not listed in these tables
ATXN2 expr inh = reduces ATXN2 reporter expression in HEK-293 cells; HEK-293 ATXN2-luciferase reporter, luminescence, 24 h; Potency, µM (series often up to 57 µM), without a hit: at the highest dose activity change, negative = inhibition, most hits filed as inhibitors; actives 0.72% (n = 360,000); AID 1745845; further: on the % scale 0 is the no-effect control and ±100 the full control effect; nearly all actives have a fitted effect of over 55% in size
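ATXN2-luciferase reporter cells (luciferase flanked by upstream and downstream ATXN2 gene portions) were treated 24 h at 37 °C with compounds at up to 57 uM. SteadyGlo luminescence gave expression; GF-AFC fluorescence gave viability.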
Nrf2 activator = activators of Nrf2 (ARE) signaling. Potency, µM (doses to about 46.1 µM), without a hit: at the highest dose activation, usual class: activators. actives 0.31% (n = 410,000). AID 624171. AREc32 ARE-luciferase reporter (MCF7-derived line), luminescence, 24 h; further: % of control where 0% means no effect; nearly all actives have a fitted effect of over 65% in size
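AREc32_Fluc, 1000 cells/well, OPTI-MEM + 5% FBS, o/n 37 deg C 5% CO2; 23 nL cpd by pin tool, 24 hr; Steady-Glo 30 min RT, luminescence.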
* marks the source's active call; other numbers are inactive results; i = inactive; ? = inconclusive; & = joins results of further samples; [ ] = dose if it differs, or a comment. The call rests on the fitted dose curve; in most records, active means well fitted curve in the direction sought with a large enough effect; inconclusive means small, poorly fitted or top-dose-only effect, or another doubt; inactive means no such curve, though single readings can be large; an effect the other way counts as inactive or inconclusive. Potency means the concentration at half of the fitted maximal effect.

The first 2 records, ahead of the listing:
SMILES | MCF10A rereplic | S2 tox | EPAC2 antag | ATXN2 expr inh | Nrf2 activator
O=C(CCCCCCC(=O)Nc1ccccc1)NO | 15µM* | ? | 0% | 179%&148%[activator] | 4.5µM*
Clc1ccc(N2CCN(Cc3c[nH]c4ncccc34)CC2)cc1 | ? | i | 12% | 7% | 3.5%

This part in full, from the start:
SMILES | MCF10A rereplic | S2 tox | EPAC2 antag | ATXN2 expr inh | Nrf2 activator
O=C(CCCCCCC(=O)Nc1ccccc1)NO | 15µM* | ? | 0% | 179%&148%[activator] | 4.5µM*
Clc1ccc(N2CCN(Cc3c[nH]c4ncccc34)CC2)cc1 | ? | i | 12% | 7% | 3.5%
COCc1cc(C)nc(SCC(=O)c2ccc(O)c(O)c2)c1C#N | -1% | i | 10% | -13% | -0.3%
C[N+](C)(CCOc1ccccc1)Cc1ccccc1 (tested in a mixture with another compound) | -4% | i | 3% | 1% | -0.2%
Cc1[nH]n(-c2ccccc2)c(=O)c1C(=O)c1ccccc1 | ? | i | 0% | -7% | -0.4%
CC[n+]1c(/C=C/N(C)c2ccccc2)oc2ccc(Cl)cc21 | 9% | i | 5% | -10% | 16%
O=C(O)C(O)c1ccccc1 (configuration not stated) | -24%&6%&18% | i | 4%&11% | -2%&6% | 0.7%&0.6%
Cc1ccc(NC(=O)c2sccc2SCc2cccc(C(F)(F)F)c2)cc1 | ? | i | -18% | 0% | 10%
CC1=NN(c2ccccc2)C(=O)C1C(=O)c1ccccc1 (configuration not stated) | ? | i | -3% | -6% | 0.0%
Cc1cccn2c(=O)c3cc(C(=O)NCCc4ccccc4)c(=N)n(CCCn4ccnc4)c3nc12 | ? | i | 3% | ? | 0.4%

8 structures out of the list, ordered by heavy-atom count, largest number first:
SMILES | MCF10A rereplic | S2 tox | EPAC2 antag | ATXN2 expr inh | Nrf2 activator
Cc1cccn2c(=O)c3cc(C(=O)NCCc4ccccc4)c(=N)n(CCCn4ccnc4)c3nc12 | ? | i | 3% | ? | 0.4%
Cc1ccc(NC(=O)c2sccc2SCc2cccc(C(F)(F)F)c2)cc1 | ? | i | -18% | 0% | 10%
COCc1cc(C)nc(SCC(=O)c2ccc(O)c(O)c2)c1C#N | -1% | i | 10% | -13% | -0.3%
Clc1ccc(N2CCN(Cc3c[nH]c4ncccc34)CC2)cc1 | ? | i | 12% | 7% | 3.5%
CC[n+]1c(/C=C/N(C)c2ccccc2)oc2ccc(Cl)cc21 | 9% | i | 5% | -10% | 16%
Cc1[nH]n(-c2ccccc2)c(=O)c1C(=O)c1ccccc1 | ? | i | 0% | -7% | -0.4%
O=C(CCCCCCC(=O)Nc1ccccc1)NO | 15µM* | ? | 0% | 179%&148%[activator] | 4.5µM*
O=C(O)C(O)c1ccccc1 (configuration not stated) | -24%&6%&18% | i | 4%&11% | -2%&6% | 0.7%&0.6%

The list is partial; count on the stated rates, not on these rows.
